Sa growth 42C = S. aureus growth inhibition; relative growth, % (test concentration not listed); S. aureus RN4220 growth, OD600, 20 h, 42 °C; hits give low values; hit rate 0.53% among 170,000;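 active means growth at 42 °C up to 50% and 20 or more points under that at 30 °C, or under 10% at both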;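 further: 300 nL library stock went into each well; scaled to the means of positive and negative controls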
HCMV UL50-53 inh = inhibitors of HCMV UL50-UL53 nuclear egress complex interaction. hit rate 0.15% among 190,000. HTRF UL50-UL53 interaction, normalized percent inhibition. AID 1918969. inhibition, % (test concentration not listed);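 active means both replicates at 50% or more, plus weaker picks with an unusually low signal ratio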;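 further: stock transfer was 100 nL into about 20 µL; 0% = negative control wells and 100% = wells with untagged competitor protein; inactives centre near -12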
GIV-Gai inh = inhibitors of GIV GBA-motif binding to rat Galpha-i3; percent of control (FP), % (no concentration beside the values); AID 1224905; hit rate 0.42% among 210,000; Galpha-i3/FITC-GIV peptide fluorescence polarization, 90 min; hits give low values; scaled: aluminum fluoride 0%, vehicle 100%;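 active means replicate mean at 85% of control or lower, very high polarization wells dropped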;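 further: wells of about 15 µL received 100 nL stock; the first replicate is given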
Target sequence (P08753 whole entry, looked up): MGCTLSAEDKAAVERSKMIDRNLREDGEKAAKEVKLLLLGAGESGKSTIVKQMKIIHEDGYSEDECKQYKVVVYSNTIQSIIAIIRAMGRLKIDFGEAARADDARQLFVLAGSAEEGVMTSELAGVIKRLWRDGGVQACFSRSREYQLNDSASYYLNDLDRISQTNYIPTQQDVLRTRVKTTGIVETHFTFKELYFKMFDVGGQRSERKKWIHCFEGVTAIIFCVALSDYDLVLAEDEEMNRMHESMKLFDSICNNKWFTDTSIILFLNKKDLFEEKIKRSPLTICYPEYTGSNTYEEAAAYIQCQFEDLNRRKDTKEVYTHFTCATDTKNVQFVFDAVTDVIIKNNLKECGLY
Sa growth 42C second temp = further read-out of Sa growth 42C, marked with its call; relative growth, %; measured here: growth at 30 °C;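 optical density after 20 h as mean of two plates; 100% = untreated growth and lower means inhibition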
* marks the source's active call; other numbers are inactive results; / = no result given; & = joins results of further samples.

SMILES	Sa growth 42C	Sa growth 42C second temp	HCMV UL50-53 inh	GIV-Gai inh
CSc1ccc(CCNC(=O)CCc2c(C)nc3cc(-c4ccccc4)nn3c2C)cc1	103	85	-27	100
Cc1ccc(C)c(N2CCN(S(=O)(=O)c3cn(C)c(C)n3)CC2)c1	94	92	/	94
O=S(=O)(CC(c1ccccc1)N1CCOCC1)c1ccc(Cl)cc1 (stereo not drawn)	102	93	-9	111
CC(C)(C)N1CC(CO)OC1=O (stereo not drawn)	101	86	-19	104
CC1=Nc2cc(C(=O)N3CCC(C)CC3)ccc2Sc2ccc(Cl)cc21	118	87	-13	103
COc1ccc(C)cc1Nc1c2c(nc3ncnn13)CCC2	/	/	-11	104
CC(C)C(=O)N(C)C1(c2ccccc2Cl)CCCCC1=O (stereo not drawn)	95	94	-7	/
O=S(=O)(NCC(c1ccco1)N1CCN(c2ccccc2)CC1)c1cc(F)ccc1F (stereo not drawn)	85	95	/	104
COc1ccccc1-c1noc(-c2ccc(NCc3cccnc3)c([N+](=O)[O-])c2)n1	106	87	-11	97
CC(NC(=O)c1ccc(Cn2c(SCc3ccccc3)nc3cccnc32)cc1)c1ccccc1 (stereo not drawn)	107	91	/	96
COCCNC(=O)C1CCCN1S(=O)(=O)c1cc2c(cc1Cl)NC(=O)CO2 (stereo not drawn)	/	/	-28	101
CSc1ncc(C(=O)NCCc2ccccc2)c(C)n1	82	74	/	153
Cc1ccc(OCCn2c(CNc3cccc(C)c3)nc3ccccc32)cc1	82	79	-18	103
Cc1ccc(-c2nc(=S)c3c(n2CCCO)CCCC3)cc1	90	79	-34	102
CSc1ccc(/C=C/C(=O)OCC(N)=O)cc1	88	89	-76	/
CCOc1ccc(OCCOc2ccc(CN3CCN(CC(=O)N(C)C)CC3)cc2OCC)cc1	97	95	-2	/
COc1cccc(CNC(=O)c2c(O)nc3ccccn3c2=O)c1	89	77	-34	101
Cc1cc2c(cc3c(SCc4cccc(F)c4)nnc(C)n32)o1	106	94	/	110
CC(C)CN(CC(C)C)S(=O)(=O)c1ccc(C(=O)Nc2nnc(-c3ccccn3)o2)cc1	83	85	-41	103
COc1ccccc1OCCn1c(=N)n(C)c2ccccc21	99	91	-14	101
CCOC(=O)c1sc2ccc(S(=O)(=O)N3CCOCC3)cc2c1N	93	88	/	105
O=C1Nc2ccccc2SC1N1CCCCC1 (stereo not drawn)	116	94	-4	/
N#C/C(=C/c1ccc(N2CCCCC2)o1)C(=O)NCCc1c[nH]c2ccccc12	163	91	-45	-90*
Brc1cccc(OCc2nnc3n2CCC3)c1	94	94	2	/
Cc1ccc(N2CC(NC(=O)c3ccccc3C(F)(F)F)CC2=O)cc1C (stereo not drawn)	126	89	/	100
COc1ccccc1CNc1c(C)c(C)nc2ncnn12	/	/	7	108
CCOC(=O)c1cc(OC(=O)c2ccccc2Cl)n(-c2ccccc2)n1	115	82	/	100
COC(=O)c1cc2oc(C)cc2n1CC(=O)Cc1ccc(OC)cc1OC	96	85	/	107
O=C(CN1C(=O)/C(=C/c2ccccc2)SC1=S)Nc1cccnc1	/	/	-13	102
CCCOCc1cc(CN2CCN(c3cccc(Cl)c3)CC2)c(O)c2ncccc12	104	91	-10	102
O=C(c1noc2c1CSc1ccccc1-2)N1CCN(c2ccccn2)CC1	/	/	1	98
COCCNC(=O)CCSc1nc(-c2ccc3c(c2)OCO3)cc(C(F)(F)F)n1	78	84	-22	101
CN(Cc1ccccc1)C(=O)CCc1nc2cccnc2n1-c1ccccc1	87	83	/	100
Cc1nn(-c2ccccc2)c(-n2cccc2)c1CN	73	96	-5	110
CCN(CC)c1ccc(NC(=O)COc2ccccc2OC)cc1	90	90	-13	/
CC1=NN(C(=O)CSc2nc3ccccc3s2)C(C)(O)C1 (stereo not drawn)	108	87	-3	/

A second format for some results above.
Structure,Sa growth 42C,Sa growth 42C second temp,HCMV UL50-53 inh,GIV-Gai inh
COc1ccccc1-c1noc(-c2ccc(NCc3cccnc3)c([N+](=O)[O-])c2)n1,106,87,-11,97
CC(NC(=O)c1ccc(Cn2c(SCc3ccccc3)nc3cccnc32)cc1)c1ccccc1 (stereo not drawn),107,91,/,96
COCCNC(=O)C1CCCN1S(=O)(=O)c1cc2c(cc1Cl)NC(=O)CO2 (stereo not drawn),/,/,-28,101
CSc1ncc(C(=O)NCCc2ccccc2)c(C)n1,82,74,/,153
Cc1ccc(OCCn2c(CNc3cccc(C)c3)nc3ccccc32)cc1,82,79,-18,103
Cc1ccc(-c2nc(=S)c3c(n2CCCO)CCCC3)cc1,90,79,-34,102
CSc1ccc(/C=C/C(=O)OCC(N)=O)cc1,88,89,-76,/
CCOc1ccc(OCCOc2ccc(CN3CCN(CC(=O)N(C)C)CC3)cc2OCC)cc1,97,95,-2,/
COc1cccc(CNC(=O)c2c(O)nc3ccccn3c2=O)c1,89,77,-34,101
Cc1cc2c(cc3c(SCc4cccc(F)c4)nnc(C)n32)o1,106,94,/,110
CC(C)CN(CC(C)C)S(=O)(=O)c1ccc(C(=O)Nc2nnc(-c3ccccn3)o2)cc1,83,85,-41,103
COc1ccccc1OCCn1c(=N)n(C)c2ccccc21,99,91,-14,101
CCOC(=O)c1sc2ccc(S(=O)(=O)N3CCOCC3)cc2c1N,93,88,/,105
O=C1Nc2ccccc2SC1N1CCCCC1 (stereo not drawn),116,94,-4,/
N#C/C(=C/c1ccc(N2CCCCC2)o1)C(=O)NCCc1c[nH]c2ccccc12,163,91,-45,-90*
Brc1cccc(OCc2nnc3n2CCC3)c1,94,94,2,/
Cc1ccc(N2CC(NC(=O)c3ccccc3C(F)(F)F)CC2=O)cc1C (stereo not drawn),126,89,/,100
COc1ccccc1CNc1c(C)c(C)nc2ncnn12,/,/,7,108
CCOC(=O)c1cc(OC(=O)c2ccccc2Cl)n(-c2ccccc2)n1,115,82,/,100
COC(=O)c1cc2oc(C)cc2n1CC(=O)Cc1ccc(OC)cc1OC,96,85,/,107
O=C(CN1C(=O)/C(=C/c2ccccc2)SC1=S)Nc1cccnc1,/,/,-13,102
CCCOCc1cc(CN2CCN(c3cccc(Cl)c3)CC2)c(O)c2ncccc12,104,91,-10,102
O=C(c1noc2c1CSc1ccccc1-2)N1CCN(c2ccccn2)CC1,/,/,1,98
COCCNC(=O)CCSc1nc(-c2ccc3c(c2)OCO3)cc(C(F)(F)F)n1,78,84,-22,101
CN(Cc1ccccc1)C(=O)CCc1nc2cccnc2n1-c1ccccc1,87,83,/,100

Later entries:
SMILES	Sa growth 42C	Sa growth 42C second temp	HCMV UL50-53 inh	GIV-Gai inh
Cc1nn(-c2ccc(-c3noc(C4CCCC4)n3)cc2)cc1C(=O)N1CCCC1	/	/	-32	99
O=C(NCCSc1nnnn1-c1ccccc1)C(c1ccccc1)c1ccccc1	104	75	/	99
O=C(O)c1cccc(NC(=O)c2cccc(S(=O)(=O)N3CCCCC3)c2)c1	106	76	/	97
CSc1nnc(SC)n1CCNC(=O)c1c(Cl)cccc1Cl	93	91	-12	105
COc1ccccc1-c1nnc(-c2ccccc2O)o1	78	45	-12	/
O=C(Nc1ccccc1)Nc1cccc2ccccc12	99	82	-15	/
O=C(COc1ccccc1)OC(C(=O)c1ccccc1)c1ccccc1 (stereo not drawn)	110	91	-10	/
Cc1cccc(N(C)C(=O)c2cccc3c2SCCC3=O)c1	100	84	/	102
Cc1ccccc1Nc1n[nH]c(=S)s1	27	27	-26	/
Cc1ccc(-c2noc(CSc3nnc(-c4ccc(Cl)cc4)n3C)n2)cc1	109	85	0	104
c1ccc(-c2n[nH]c3ccccc23)cc1	97	70	/	106
COc1ccc(-c2nc(Cn3nc(-c4cccc(OC)c4)c4c(C)onc4c3=O)c(C)o2)cc1	/	/	-18	110
c1cnc(N2CCN(Cc3ccc4c(c3)OCO4)CC2)nc1	95&97	89&97	-38&6&-48&4&4	108&109
CCOC(=O)c1sc2nc(CC(=O)OC)nc(NCC(OCC)OCC)c2c1C	/	/	-6	109
COc1ccc(-n2ccnc(NCc3ccccc3OC)c2=O)cc1	116	92	/	103
N#CCCn1c(Sc2ncnc3sc4c(c23)CCCC4)nc2ccccc21	67	68	8	/
CCSc1nc2cc(S(=O)(=O)N(CC)CC)ccc2n1CC	102	91	-20	/
CC1CC(C)CN(C(=O)CSc2nc3ccccc3c(=O)n2C2CC2)C1 (stereo not drawn)	96	86	5	98
O=C(O)c1cnc2sccn2c1=O	99	97	-2	108
O=C(O)CCc1oc2cc(O)ccc2c(=O)c1-c1nc2ccccc2[nH]1	98	87	/	119
C=CCn1c2ccccc2c2nn3cnnc3nc21	95	81	-149	97
COc1ccc2nc3oc(C(=O)Nc4ccc(C(C)C)cc4)cc3cc2c1	113	74	/	107
Fc1cc(Br)ccc1N=Cc1ccncc1	130	86	-41	/
COC(CNC(=S)Nc1cccc(C(F)(F)F)c1)OC	107	102	-2	104
CCc1noc2nc(C)nc(NCC3CCCO3)c12 (stereo not drawn)	/	/	-12	101
O=C(O)CSCc1nc2ccccc2[nH]1	92	89	-4	/
CC(C(=O)Nc1ccccc1Cl)n1nnc2sc3c(c2c1=O)CCCC3 (stereo not drawn)	/	/	-28	107
CCC(=O)N1CCc2cc(S(=O)(=O)NC(Cc3ccccc3)C(=O)NCc3ccccc3)ccc21 (stereo not drawn)	80	64	-16	104
CCOc1ccc(Br)cc1S(N)(=O)=O	80	94	-9	/
O=P(c1ccccc1)(c1ccccc1)C(O)c1cccs1 (stereo not drawn)	119	97	-4	95
Cc1nn(C2CCS(=O)(=O)C2)c(Cl)c1/C=C/C(=O)OCC(=O)c1ccc(Cl)s1 (stereo not drawn)	88	94	-3	/
O=C1NC(=O)C(=CN2CCC(Cc3ccccc3)CC2)C(=O)N1	100	95	1	/
COC(CNC(=O)c1cc2c(s1)CSC2)OC	110	84	/	112
COC(=O)c1c(N2CCCC2=O)c2cc(F)ccc2n1C	/	/	-37	106
COc1ccccc1C(=O)Nc1ccc(OCc2cc(=O)n3cc(C)sc3n2)cc1	94	102	11	105
c1cnc2c(Oc3ncnc4c3oc3ccccc34)cccc2c1	87	96	-35	/
O=C(CCN1C(=O)c2ccccc2S1(=O)=O)Nc1nc(-c2ccccc2)cs1	112	75	/	105
COc1ccccc1CNC(=O)CCS(=O)(=O)c1ccc2c(c1)CC(C)N2C(=O)C1CC1 (stereo not drawn)	92	92	/	104
Cc1ccc(Nc2nnc(-c3ccc(C)c(S(=O)(=O)N4CCOCC4)c3)c3ccccc23)c(C)c1	99	105	-11	103
CCCCc1nc(Cl)c(CO)n1Cc1ccc(-c2ccccc2-c2nnn[nH]2)cc1	105&94	105&89	-32&-56	106
CC(C)c1ccc(NC(=O)CCCc2nc(-c3ccc(Cl)cc3)no2)cc1	104	86	-20	100
CC(=O)Nc1ccc(S(=O)(=O)Nc2ccc(Nc3cc(N(C)C)nc(C)n3)cc2)cc1	/	/	8	100
Cc1cccc(N2C(=O)c3cc4sccc4n3CC2(C)C(=O)NC2CCCCC2)c1C (stereo not drawn)	/	/	9	96
CC1=C(C(=O)Nc2ccccc2)C(c2cccs2)n2nc(SCc3ccccc3)nc2N1 (stereo not drawn)	134	92	-96	103
CC(C)CC1N=C2c3ccccc3N=C(SCC(=O)NCCc3ccc(S(N)(=O)=O)cc3)N2C1=O (stereo not drawn)	97	89	4	96
CCC(C(=O)NC(C)C)n1cnc2oc(C)c(C)c2c1=O (stereo not drawn)	/	/	-25	107
CCc1ccc(NC(=O)Cn2c(SCc3ccc(F)cc3)nc3cccnc32)cc1	/	/	19	104
CC(=O)Nc1nonc1NC1=CC(=O)CC(C)(C)C1	99	83	-19	/
Cn1c(CNC(=O)c2ccco2)nnc1SCC(=O)c1ccccc1	106	102	-3	102
CC1(C)CC(=O)c2cc(C(=O)Nc3ccc4c(c3)OCCO4)c(=O)[nH]c2C1	/	/	-10	104
CC(C)(C)c1cc(C(C)(C)C)n(-c2ccc(C(=O)NN)cc2)n1	103	95	-27	99
CCc1cccc(NC(=O)CCc2c(C)nc3c(c2C)c(=O)n(C)c(=O)n3C)c1	95	95	-3	110
CC(C)CCn1nc(C(=O)OCC(N)=O)c2ccccc2c1=O	81	91	-31	/
COc1cc(Cl)c(C)cc1NC(=O)c1cnn(-c2ccc(F)cc2F)c1C1CCN(C(=O)OC(C)(C)C)CC1	91	88	/	111
O=C(O)c1ccccc1S(=O)c1cccc2cccc(CO)c12 (stereo not drawn)	101	83	-38	94
CCOc1ccsc1C(=O)Nc1ccc(OC(F)(F)F)cc1	87	88	4	101
Cc1ccc(S(=O)(=O)CCN2CCN(c3ccccc3)CC2)cc1	70	90	-1	/
O=C(O)CCN1CCN(c2ccccn2)CC1	101	73	-20	102
Cc1cccc(C)c1Nc1c(-c2cccc(O)c2)nc2sccn12	/	/	-6	100
O=C1CC(c2cccc(C(F)(F)F)c2)C2=C(CCCC2=O)N1 (stereo not drawn)	95	84	-16	103

Marked active in GIV-Gai inh, among the entries above:
compound	Sa growth 42C second temp	GIV-Gai inh
N#C/C(=C/c1ccc(N2CCCCC2)o1)C(=O)NCCc1c[nH]c2ccccc12	91	-90*

Further entries follow:
SMILES	Sa growth 42C	Sa growth 42C second temp	HCMV UL50-53 inh	GIV-Gai inh
CC1CCN(C(=O)Cn2cc(SCC(=O)N3CCCCC3)c3ccccc32)CC1	/	/	-7	105
CC1CCN(C(=O)C2CCN(c3ncnc4c3sc3ncccc34)CC2)CC1	/	/	-22	102
S=C(NCc1ccccc1)N1CCCCCC1	102	90	-7	/
CCN(CC)C(=O)C1c2ccccc2C(=O)N2CCc3cc(OC)c(OC)cc3C12 (stereo not drawn)	100	87	/	99

Compound activity as filed in PubChem.
